NOMO-1 viab: NOMO-1 AML cell viability reduction, primary screen, STK33 inhibitor project, CellTiter-Glo luminescence. NOMO-1 AML viability, 72 h. AID 2330, 2010. hit rate 7.5% among 37,000. inhibition, % (no concentration beside the values);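 active = most replicates above 80%; inconclusive = exactly half above 80%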;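 also: wells of about 30 µL received 25 nL stock; 0% = median of vehicle wells and 100% = reference inhibitor level; the first replicate is given; inactives centre near 10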
An asterisk follows results filed as active; ? = inconclusive.

SMILES	NOMO-1 viab
Cc1ccc(S(=O)(=O)Nc2ccc3c(c2)C(=O)N([C@H](C)CO)C[C@H](C)[C@@H](CN(C)Cc2ccccc2)O3)cc1	18
Cn1c(SCC(=O)Nc2c(F)cc(F)cc2Br)nnc1-c1cnccn1	14
COc1ccc(NC(=O)N(C)C[C@H]2Oc3ccc(NS(=O)(=O)c4ccc(F)cc4)cc3CC(=O)N([C@@H](C)CO)C[C@@H]2C)cc1	1
O=C(CSc1nnc(-c2cccc([N+](=O)[O-])c2)n1-c1ccccc1)c1ccc(Br)cc1	2
COc1ccc(S(=O)(=O)n2cc(-c3ccc(F)cc3)c(N)n2)c(OC)c1	33
CCOC(=O)C(C)N1c2cccc3cccc(c23)S1(=O)=O (centres undefined)	-17
COc1ccc(S(=O)(=O)Nc2ccc3c(c2)CC(=O)N([C@@H](C)CO)C[C@@H](C)[C@@H](CN(C)S(=O)(=O)c2ccc(C)cc2)O3)cc1	45
CCOC(=O)c1cc(C)n(CCCN2CCOCC2)c1C	31
Cc1noc(C)c1S(=O)(=O)N(C)C[C@@H]1Oc2ccc(NC(=O)Nc3ccc(F)cc3)cc2CC(=O)N([C@@H](C)CO)C[C@@H]1C	28
COc1ccc(S(=O)(=O)Nc2cccc3c2O[C@H](CN(C)S(=O)(=O)c2ccc(OC)cc2)[C@@H](C)CN([C@@H](C)CO)C3=O)cc1	-4
C[C@@H]1CN([C@H](C)CO)C(=O)Cc2cc(NC(=O)Cc3ccccc3)ccc2O[C@@H]1CN(C)S(=O)(=O)c1ccc(Cl)cc1	14
Cc1ccc(S(=O)(=O)N2CCN(c3ccc([N+](=O)[O-])c(NCc4ccco4)c3)CC2)cc1C	57
COC(=O)C1=C(C)Nc2ncnn2C1c1ccco1 (centres undefined)	-10
COc1ccc(CN(C)C[C@@H]2Oc3ccc(NC(=O)Cc4cn(C)c5ccccc45)cc3CC(=O)N([C@H](C)CO)C[C@H]2C)cc1	37
Cc1cccc(-c2nnc(SCC(=O)Nc3cc([N+](=O)[O-])ccc3C)o2)c1	-15
COc1ccc(CN(C)C[C@H]2Oc3ccc(NC(=O)Nc4ccccc4)cc3CC(=O)N([C@@H](C)CO)C[C@@H]2C)cc1	12
COc1ccc(OC)c(NC(=O)Cc2coc3ccc4ccccc4c23)c1	-5
Cc1noc(C)c1S(=O)(=O)Nc1ccc2c(c1)C(=O)N([C@@H](C)CO)C[C@H](C)[C@H](CN(C)C(=O)Nc1ccc(C(F)(F)F)cc1)O2	-2
C[C@@H]1CN([C@H](C)CO)C(=O)Cc2cc(NC(=O)NC3CCCCC3)ccc2O[C@@H]1CN(C)Cc1ccc2c(c1)OCO2	29
Cc1cc(Cl)c(S(=O)(=O)NC23CC4CC(CC(C4)C2)C3)cc1OCC(N)=O	20
CC(=O)c1ccc(NC(=O)CSc2nc3ccc(NC(=O)c4ccccc4Cl)cc3s2)cc1	43
CS(=O)(=O)N(CC(=O)Nc1ccc(Br)cc1)c1ccc(Cl)cc1Cl	23
COc1ccc(S(=O)(=O)N(C)C[C@H]2Oc3c(NS(=O)(=O)c4ccc(C)cc4)cccc3C(=O)N([C@H](C)CO)C[C@H]2C)cc1	19
COc1ccc(NC(=O)COc2ccc(Cl)cc2)cc1NC(=O)c1ccco1	-5
C[C@@H]1CN([C@H](C)CO)C(=O)Cc2cc(NC(=O)Nc3ccc(F)cc3)ccc2O[C@@H]1CN(C)Cc1ccc(Cl)c(Cl)c1	114*
C[C@@H]1CN([C@H](C)CO)C(=O)Cc2cc(NS(=O)(=O)c3ccccc3)ccc2O[C@@H]1CN(C)C(=O)Nc1ccc(F)cc1	1
C[C@@H]1CN([C@@H](C)CO)C(=O)c2cc(NC(=O)CCCN(C)C)ccc2O[C@@H]1CN(C)S(=O)(=O)c1ccc(Cl)cc1	-2
Cc1noc(C)c1S(=O)(=O)Nc1ccc2c(c1)C(=O)N([C@@H](C)CO)C[C@@H](C)[C@@H](CN(C)C)O2	23
C=CC(C)(O)CCC1(C)C2=C(C(OC(C)=O)C(OC(C)=O)C1C)C(C)(C)CCC2 (centres undefined)	115*
Cc1noc(C)c1S(=O)(=O)Nc1cccc2c1O[C@H](CN(C)S(=O)(=O)c1cn(C)cn1)[C@H](C)CN([C@H](C)CO)C2=O	-24
COc1ccc(NC(=O)Nc2ccc3c(c2)C(=O)N([C@H](C)CO)C[C@H](C)[C@@H](CN(C)C)O3)cc1	1
CC(NS(=O)(=O)c1ccc(F)cc1)C(=O)Nc1cc(Cl)ccc1Oc1ccccc1 (centres undefined)	29
Cc1ccc(Cl)cc1NC(=O)CN(c1ccc(Cl)cc1)S(C)(=O)=O	5
Cc1noc(C)c1NC(=O)N(C)C[C@@H]1Oc2c(NC(=O)C3CCCCC3)cccc2C(=O)N([C@@H](C)CO)C[C@H]1C	-1
C[C@@H]1CN([C@@H](C)CO)C(=O)c2cc(NC(=O)CCN3CCOCC3)ccc2O[C@@H]1CN(C)Cc1ccc(C(F)(F)F)cc1	36
CN(C)c1ccc(NC(=O)CN(C)S(=O)(=O)c2ccc(Br)cc2)cc1	26
O=c1cc(-c2ccccc2)ss1	74
Cc1ccc(-n2c(SCC(=O)c3ccc(Cl)cc3)nnc2-c2ccco2)cc1	26
Cc1noc(C)c1S(=O)(=O)N(C)C[C@@H]1Oc2ccc(NS(=O)(=O)c3ccccc3)cc2CC(=O)N([C@H](C)CO)C[C@@H]1C	3
Cc1ccc(S(=O)(=O)Nc2ccc3c(c2)C(=O)N([C@H](C)CO)C[C@@H](C)[C@@H](CN(C)Cc2ccc(C(=O)Nc4ccccc4N)cc2)O3)cc1	110*
O=C(O)Cn1cc(C(=O)c2cccs2)c2ccccc21	-17
CC(C)NC(=O)N(C)C[C@@H]1Oc2ccc(NC(=O)Cc3cn(C)c4ccccc34)cc2CC(=O)N([C@H](C)CO)C[C@H]1C	-12
COc1ccc(NC(=O)Nc2ccc3c(c2)C(=O)N([C@@H](C)CO)C[C@@H](C)[C@@H](CN(C)Cc2ccc(C(F)(F)F)cc2)O3)cc1	?
COc1ccc(S(=O)(=O)N2CCN(c3ccccn3)CC2)cc1N(C)S(=O)(=O)c1ccccc1	26
C[C@H]1CN([C@@H](C)CO)C(=O)c2cccc(NC(=O)NC3CCCCC3)c2O[C@@H]1CN(C)CC1CCCCC1	68
Cc1cc(C(F)(F)F)c(C#N)c(SCC(=O)Nc2ccc(Cl)cc2)n1	15
COc1ccc(NC(=O)N(C)C[C@@H]2Oc3ccc(NS(=O)(=O)c4ccc(OC)cc4)cc3C(=O)N([C@@H](C)CO)C[C@@H]2C)cc1	19
COc1cc(C2C3=C(CC(C)(C)CC3=O)Nc3ncnn32)ccc1OCC(=O)N1CCOCC1 (centres undefined)	7
CC(=O)Nc1ccc(NC(=O)CN2C(=O)COc3ccc(Cl)cc32)cc1	36
CSc1ccc(C(Nc2ccccn2)c2cc(Cl)c3cccnc3c2O)cc1 (centres undefined)	112*
COc1ccc(NC(=O)CSc2nnc(-c3ccco3)n2-c2ccccc2)cc1	7
COc1ccc(S(=O)(=O)N(C)C[C@H]2Oc3ccc(NC(=O)CCCCCC(=O)Nc4ccccc4N)cc3C(=O)N([C@H](C)CO)C[C@H]2C)cc1	-43
COc1ccccc1OCC(O)Cn1cnc2ccccc21 (centres undefined)	3
O=C1CC(c2ccccc2)Oc2ccc(Cl)cc21 (centres undefined)	115*
C[C@@H]1CN([C@H](C)CO)C(=O)c2cc(NC(=O)CCCN(C)C)ccc2O[C@@H]1CN(C)Cc1ccccc1	19
CC1CCc2c(sc3nc(SCC(=O)NCC4CCCO4)n(-c4ccccc4)c(=O)c23)C1 (centres undefined)	?
COc1c(O)cc2c(c1O)C(=O)CC(c1ccccc1)O2 (centres undefined)	13
C[C@@H]1CCCCO[C@H](CN(C)Cc2ccccc2)[C@@H](C)CN([C@H](C)CO)C(=O)c2cc(NS(=O)(=O)c3ccc(Cl)cc3)ccc2O1	41
CCc1cc2c(SCc3nc4ccccc4[nH]3)ncnc2s1	53
Clc1nsnc1N1CCOCC1	5

New compounds follow:
SMILES	NOMO-1 viab
O=[N+]([O-])c1cc(C(F)(F)F)ccc1N(CCO)CCO	5
O=C(CCSc1nnnn1-c1ccccc1)Nc1ccc(Cl)cc1	7
COc1ccccc1NC(=O)c1ccc(C(C)(C)C)cc1	44
CC(=O)Cc1cc(O)cc2oc(C)cc(=O)c12	-19
O=C(Cn1nnc2ccccc21)c1ccc(Oc2ccc([N+](=O)[O-])cc2)cc1	1
N#Cc1ccc2c(c1)N(CCCN1CCC(O)CC1)c1ccccc1S2	18
C[C@@H]1CN([C@@H](C)CO)C(=O)c2cccc(NC(=O)C3CCCCC3)c2O[C@H]1CN(C)Cc1ccc2c(c1)OCO2	26
Cc1ccccc1OCC(=O)Nc1cccc(Oc2ccc3c(c2)C(=O)NC3=O)c1	13
C[C@H](CO)N1C[C@H](C)[C@@H](CN(C)Cc2ccc(Cl)c(Cl)c2)Oc2c(NC(=O)C3CCCCC3)cccc2C1=O	102*
C[C@H]1CN([C@@H](C)CO)C(=O)c2cccc(NS(C)(=O)=O)c2O[C@@H]1CN(C)S(=O)(=O)c1ccc(F)cc1	-8
CCc1ccc(/C=N/n2c(C)nnc2-n2nc(C)cc2C)cc1	2
Cc1noc(C)c1NC(=O)Nc1cccc2c1O[C@@H](CN(C)S(=O)(=O)c1cn(C)cn1)[C@H](C)CN([C@H](C)CO)C2=O	4

2 compounds drawn at random from those above, as already listed:
SMILES	NOMO-1 viab
O=C(CCSc1nnnn1-c1ccccc1)Nc1ccc(Cl)cc1	7
O=C(Cn1nnc2ccccc21)c1ccc(Oc2ccc([N+](=O)[O-])cc2)cc1	1

(further entries)
SMILES	NOMO-1 viab
C[C@@H]1CCCCO[C@@H](CN(C)Cc2ccc3c(c2)OCO3)[C@@H](C)CN([C@H](C)CO)C(=O)c2cc(NC(=O)C3CCCCC3)ccc2O1	23
C[C@H](CO)N1C[C@H](C)[C@H](CN(C)C(=O)Nc2ccc(C(F)(F)F)cc2)Oc2c(NC(=O)Nc3ccccc3)cccc2C1=O	49
CCN(CC)c1ccc2cc(C(=O)Nc3ccccc3)c(=N)oc2c1	15
COc1ccc(-c2nnc(SCC(=O)O)n2-c2ccccc2)cc1	-9
COc1ccccc1N(CC(=O)N1CCN(C)CC1)S(C)(=O)=O	7
C[C@H](CO)N1C[C@H](C)[C@H](CN(C)S(=O)(=O)c2ccc(F)cc2)Oc2ccc(NC(=O)C3CCCCC3)cc2CC1=O	-18
C[C@H](CO)N1C[C@H](C)[C@@H](CN(C)Cc2ccncc2)Oc2ccc(NS(=O)(=O)c3cn(C)cn3)cc2C1=O	-13
CS(=O)(=O)N(CC(=O)NC1CCCC1)c1ccc2c(c1)OCCO2	-3
Cc1c(Cl)cccc1NC(=O)c1ccccc1OCC(=O)Nc1ccc2c3c(cccc13)CC2	27
C[C@H](CO)N1C[C@H](C)[C@H](CN(C)Cc2ccc(C(=O)O)cc2)Oc2ccc(NC(=O)c3ccncc3)cc2CC1=O	-17
Cc1noc(C)c1NC(=O)Nc1ccc2c(c1)C(=O)N([C@H](C)CO)C[C@@H](C)[C@H](CN(C)Cc1ccc(C(=O)Nc3ccccc3N)cc1)O2	5
CCOC(=O)c1cnc2c(C)c(C)ccc2c1NCCN(C)C	33

Exported bar-delimited: part of the list above
canonical_smiles | NOMO-1 viab
C[C@H](CO)N1C[C@H](C)[C@H](CN(C)C(=O)Nc2ccc(C(F)(F)F)cc2)Oc2c(NC(=O)Nc3ccccc3)cccc2C1=O | 49
CCN(CC)c1ccc2cc(C(=O)Nc3ccccc3)c(=N)oc2c1 | 15
COc1ccc(-c2nnc(SCC(=O)O)n2-c2ccccc2)cc1 | -9
COc1ccccc1N(CC(=O)N1CCN(C)CC1)S(C)(=O)=O | 7
C[C@H](CO)N1C[C@H](C)[C@H](CN(C)S(=O)(=O)c2ccc(F)cc2)Oc2ccc(NC(=O)C3CCCCC3)cc2CC1=O | -18
C[C@H](CO)N1C[C@H](C)[C@@H](CN(C)Cc2ccncc2)Oc2ccc(NS(=O)(=O)c3cn(C)cn3)cc2C1=O | -13
CS(=O)(=O)N(CC(=O)NC1CCCC1)c1ccc2c(c1)OCCO2 | -3

Going on with the list.
SMILES	NOMO-1 viab
CCCN(CCC)C(=O)c1c(NC(=O)c2ccco2)sc2c1CCC(C)C2 (centres undefined)	68
CC(C)NC(=O)N(C)C[C@H]1Oc2ccc(NC(=O)CCN3CCOCC3)cc2CC(=O)N([C@@H](C)CO)C[C@H]1C	15
Cc1noc(C)c1NC(=O)Nc1ccc2c(c1)CC(=O)N([C@@H](C)CO)C[C@H](C)[C@@H](CN(C)C)O2	-8
C[C@@H]1CN([C@H](C)CO)C(=O)Cc2cc(NC(=O)C3CCCCC3)ccc2O[C@H]1CN(C)C(=O)NC1CCCCC1	10
C=CCNC(=O)COc1nc(-c2cccs2)cc(C(F)(F)F)n1	-12
C[C@H](CO)N1C[C@H](C)[C@H](CN(C)S(C)(=O)=O)Oc2ccc(NC(=O)Nc3ccc(C(F)(F)F)cc3)cc2CC1=O	98*
CCOC(=O)c1c(NC(=O)CSc2nc3ccccc3c(=O)[nH]2)sc2c1CCCC2	107*
O=C(CCCN1C(=O)c2ccccc2C1=O)Nc1cccc(Cl)c1Cl	-15
N#Cc1ccc(-c2ccc(OC(=O)CS(=O)c3ccc(C(F)(F)F)cc3[N+](=O)[O-])cc2)cc1 (centres undefined)	129*
COc1ccccc1N1CCN(CCNC(=O)Nc2cccc(C)c2C)CC1	57
Cn1c(SCC(=O)Nc2sc3c(c2C#N)CCCC3)nnc1-c1ccc(Cl)cc1Cl	-12
CC(C)NC(=O)Nc1ccc2c(c1)C(=O)N([C@H](C)CO)C[C@@H](C)[C@@H](CN(C)Cc1ccc(C(=O)Nc3ccccc3N)cc1)O2	31
COc1cc([C@H]2c3cc(O)c(OC)cc3C[C@@](O)(CO)[C@@H]2CO)ccc1O	12

Bioassay records (PubChem BioAssay)

Only part of the results is shown; rates above refer to the full screens.
